NPR1 antag – Natriuretic polypeptide receptor (hNpr1) antagonism - Primary qHTS; Atrial natriuretic peptide receptor 1 (Homo sapiens), P16066; HEK293 hNpr1 GloSensor cGMP, ANP-stimulated luminescence; Potency, µM (series often up to 46.3 µM), without a hit: top-dose activity change, negative = inhibition, hits mostly inhibitors; 76,000 tested, 1.6% active; active = well fitted inhibition curve with a large enough effect; inconclusive = small, poorly fitted or top-dose-only effect; inactive = no such curve, though single readings can be large or run the other way;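 also: nearly all actives have a fitted effect of over 60% in size; nearly all hits also lower the signal before the agonist is added; a reference antagonist and vehicle were the controls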
Target sequence (P16066 whole entry, looked up): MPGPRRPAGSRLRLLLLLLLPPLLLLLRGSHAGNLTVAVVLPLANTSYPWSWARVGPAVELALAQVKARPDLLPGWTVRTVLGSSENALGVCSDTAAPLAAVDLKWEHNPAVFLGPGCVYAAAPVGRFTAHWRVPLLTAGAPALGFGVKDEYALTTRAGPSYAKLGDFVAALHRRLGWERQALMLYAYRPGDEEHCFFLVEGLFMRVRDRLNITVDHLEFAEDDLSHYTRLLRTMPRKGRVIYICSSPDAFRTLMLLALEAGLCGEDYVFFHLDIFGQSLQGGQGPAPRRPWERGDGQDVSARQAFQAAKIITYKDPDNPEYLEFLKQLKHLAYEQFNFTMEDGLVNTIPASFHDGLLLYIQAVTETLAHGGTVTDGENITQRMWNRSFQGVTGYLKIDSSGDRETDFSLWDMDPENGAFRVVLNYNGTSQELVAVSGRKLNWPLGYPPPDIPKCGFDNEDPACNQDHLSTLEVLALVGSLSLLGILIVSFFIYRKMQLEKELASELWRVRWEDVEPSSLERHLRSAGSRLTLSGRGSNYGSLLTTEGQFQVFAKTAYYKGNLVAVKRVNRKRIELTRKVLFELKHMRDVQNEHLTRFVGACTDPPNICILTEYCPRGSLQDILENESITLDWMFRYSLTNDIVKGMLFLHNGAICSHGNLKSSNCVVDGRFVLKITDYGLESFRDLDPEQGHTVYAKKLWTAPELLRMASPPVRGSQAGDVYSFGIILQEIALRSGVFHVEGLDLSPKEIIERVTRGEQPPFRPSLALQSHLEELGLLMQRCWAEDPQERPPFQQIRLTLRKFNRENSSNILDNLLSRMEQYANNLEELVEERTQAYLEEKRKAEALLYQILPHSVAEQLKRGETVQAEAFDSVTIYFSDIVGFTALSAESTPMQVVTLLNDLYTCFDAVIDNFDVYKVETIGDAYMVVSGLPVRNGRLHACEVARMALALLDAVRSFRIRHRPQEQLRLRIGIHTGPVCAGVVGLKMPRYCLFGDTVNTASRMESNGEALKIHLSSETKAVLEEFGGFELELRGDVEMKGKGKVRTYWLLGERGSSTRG
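HEK293 cells stably expressing human Npr1 and cGMP GloSensor pGS-40F, loaded 2 h with 2% GloSensor reagent, given compound 30 min at room temperature. Luminescence read before and 20 min after 0.1 nM hNppA.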
Starred values were filed as active, the others as inactive; u = inconclusive; [ ] = dose if it differs, or a comment. % is scaled to controls: 0 for no effect and ±100 for the full control effect; potency is read from the fitted curve at half-maximal effect. Only part of the results is shown; the hit share may differ from the screen's.

SMILES | NPR1 antag
CNC(=O)c1cc[nH]c1C1CCCN(C(=O)c2ccc(Cn3ccnc3)o2)C1 (stereo not drawn) | 1%
CN(Cc1cccnc1)c1nc2c(c(=O)[nH]1)CCN(Cc1ccc(Cl)cc1)CC2 | -2%
CN1CC2(CCN(C(=O)Nc3ccccc3)CC2)CC1C(=O)N1CCOCC1 (stereo not drawn) | -4%
COC(=O)[C@@H]1Cc2c([nH]c3ccccc23)[C@H]2C[C@@H](NCc3cccs3)C[C@@H](c3ccc(F)cc3)N21 | 0%
NC(=O)c1nnn([C@H]2CCN3C(=O)[C@@H](Cc4c[nH]c5ccccc45)NC(=O)[C@@H]3C2)c1C(N)=O | 5%
CN1CCC2(C1)CN(CC1CCOCC1)c1ccc(C(=O)NCCOc3ccccc3)cc12 (stereo not drawn) | -1%
Cc1ccc(-c2noc([C@@H]3CCCN3C(=O)Cc3ccccc3Cl)n2)cc1 | -6%
Cc1cc(CN2CCC(c3nnc(CN4CCCC4)n3C3CC3)CC2)on1 | -4%
COc1ccccc1-c1nnc([C@H]2CCN(C3CCN(C)CC3)C2)o1 | 3%[70.6 µM]
CCOC(=O)C1(Cc2ccc(F)cc2F)CCCN(S(=O)(=O)c2ccsc2)C1 (stereo not drawn) | -17%
CCC1(N2CCN(C(=O)c3ccccc3C(F)(F)F)CC2)CCN(C(=O)C(C)C)C1 (stereo not drawn) | -14%
O=C1NC(C(=O)NC2CCCCC2)Cn2cccc21 (stereo not drawn) | -8%
COc1ccc(-c2noc(C(=O)NC(C)(C)C)c2[C@H](C)O)cc1 | 0%[70.6 µM]
O=C(CCCn1cncn1)NC1CC(c2cc(N3CCOCC3)ncn2)C1 (stereo not drawn) | 2%
Cc1ncsc1C(=O)N1CCC(C(=O)O)(n2ccc(-c3ccco3)n2)CC1 | -2%
O=c1[nH]ccn1C1CCN(Cc2ccsc2)CC1 | 8%[70.6 µM]
O=C(NC1CCCC1)c1c(OCC2CC2)cc(=O)n2c1CCOCC2 | -2%
CCC(C)(C)C(=O)N1CCC2(CC1)N(C)C(=O)CS2(=O)=O | 2%
CN1CCN(C(=O)c2cc(C3CC3)[nH]n2)CC12CCNC(=O)CC2 (stereo not drawn) | -3%
O=C1CC2(CCN([S+](=O)([O-])c3cccs3)CC2)Oc2ccccc2N1c1ccccc1 | 21%
O=C(CCC[C@@H]1[C@H]2CCCN3CCC[C@@H](CN1Cc1ccccc1)[C@@H]23)N1CCOCC1 | -2%
COCCc1nncn1C1CCN(C(=O)c2ccccc2OC(F)(F)F)CC1 | 0%
COc1cc(C(=O)N2CCC[C@H]2c2nc(-c3ccc(F)cc3)no2)cc(OC)c1OC | -15%
CCCn1cc(C2CCN(S(=O)(=O)c3c(C)c(C)cc(C)c3C)CC2)c2ccccc21 | 0%
NS(=O)(=O)c1ccc(F)c(C(=O)NCCSc2ccccn2)c1 | -9%
COc1ccc(CCN2C(=O)O[C@@H]3CN(S(=O)(=O)N4CCCC4)C[C@@H]32)cc1 | 4%
Cc1noc2c(NC3CCOCC3)cc(-c3ccsc3)nc12 | 6%[70.6 µM]
CCC1=C(C(=O)OC)C(c2ccccc2F)N2C(CC(=O)N3CCC(C)CC3)=CSC2=N1 (stereo not drawn) | -29%
Cc1nnc(CN(C)C(=O)c2cccc(S(=O)(=O)N3CCOCC3)c2)o1 | 10%
CN(C)CC1(O)CCCN(Cc2cccc3ncccc23)C1 (stereo not drawn) | 2%
O=C1Nc2ccccc2C2(CCN(C(=O)c3ccccc3F)C2)O1 (stereo not drawn) | 3%[70.6 µM]
COc1cc2c(cc1OC)C(C[C@H]1CN(C(=O)c3ccco3)CC[C@H]1CC(=O)O)=NCC2 | -2%
CCOc1ccc(-c2ccnc(N3CCOC(CN)C3)n2)cc1C(=O)O (stereo not drawn) | 3%
CCOc1ccc(NC(=O)c2ccc3c(c2)N(CC)C2CCCN2C3=O)cc1 (stereo not drawn) | 0%
NC(=O)C1CCN([C@H]2[C@@H]3OC[C@@H](O3)[C@@H](NCc3ccc4c(c3)OCO4)[C@@H]2O)CC1 | -5%[70.6 µM]
O=S(=O)(Cc1ccccc1F)N1CCC(c2noc(-c3cccnc3)n2)C1 (stereo not drawn) | -4%
CCn1cc(CN2CCC([C@@H]3CNC[C@H]3CO)CC2)c(C)n1 | 2%
COC(=O)c1ccc2c(c1)nc1n2[C@@H](CNC2CCC2)COC1 | -3%[70.6 µM]
CCNC(=O)N1CCCCCC1CN1CCc2ccccc2C1 (stereo not drawn) | -8%
O=C(c1ccc(F)c(Cl)c1)N1CC(CO)C2(CCNCC2)C1 (stereo not drawn) | 5%
Cc1noc(-c2cccc(OC3CN(C(=O)c4ccco4)C3)c2)n1 | 1%
CC(C)C[C@H]1NC(=O)[C@@H]2C[C@@H](n3nnc(C(N)=O)c3C(N)=O)CCN2C1=O | -1%[70.6 µM]
CCN(CC)C(=O)C1=C(C)N=C2SC=C(CC(=O)NCc3ccco3)N2C1c1ccccc1F (stereo not drawn) | -1%
C[C@@H](NCC1CCCCC1)c1onc(-c2ccc(F)cc2)c1C(=O)O | 0%[70.6 µM]
COc1ccc(C(=O)N2CCC3(CCC3OC)CC2)cc1 (stereo not drawn) | 3%
NC(=O)COC[C@@H]1CN(C(=O)CC2CCCCC2)C[C@H]1c1ccncc1 | -6%
O=C1c2c(nc(CNCc3cccnc3)n2Cc2ccccc2)NCCN1CC1CCOCC1 | 5%
Cc1cnc(C(=O)NC2C[C@H]3CC[C@@H](C2)N3C(=O)C2CCCCC2)cn1 (stereo partly drawn) | -1%
O=C(c1ccc2c(c1)CC(=O)N2Cc1ccccc1)N1CCN(C2CCCCC2)CC1 | -9%
COc1cccc(C(CC(=O)NC2CCCCC2)c2c[nH]c3ccccc23)c1OC (stereo not drawn) | -18%

Nothing new here: an excerpt of the list.
SMILES | NPR1 antag
NC(=O)C1CCN([C@H]2[C@@H]3OC[C@@H](O3)[C@@H](NCc3ccc4c(c3)OCO4)[C@@H]2O)CC1 | -5%[70.6 µM]
O=S(=O)(Cc1ccccc1F)N1CCC(c2noc(-c3cccnc3)n2)C1 (stereo not drawn) | -4%
CCn1cc(CN2CCC([C@@H]3CNC[C@H]3CO)CC2)c(C)n1 | 2%
COC(=O)c1ccc2c(c1)nc1n2[C@@H](CNC2CCC2)COC1 | -3%[70.6 µM]
CCNC(=O)N1CCCCCC1CN1CCc2ccccc2C1 (stereo not drawn) | -8%
O=C(c1ccc(F)c(Cl)c1)N1CC(CO)C2(CCNCC2)C1 (stereo not drawn) | 5%
Cc1noc(-c2cccc(OC3CN(C(=O)c4ccco4)C3)c2)n1 | 1%
CC(C)C[C@H]1NC(=O)[C@@H]2C[C@@H](n3nnc(C(N)=O)c3C(N)=O)CCN2C1=O | -1%[70.6 µM]
CCN(CC)C(=O)C1=C(C)N=C2SC=C(CC(=O)NCc3ccco3)N2C1c1ccccc1F (stereo not drawn) | -1%
C[C@@H](NCC1CCCCC1)c1onc(-c2ccc(F)cc2)c1C(=O)O | 0%[70.6 µM]
COc1ccc(C(=O)N2CCC3(CCC3OC)CC2)cc1 (stereo not drawn) | 3%
NC(=O)COC[C@@H]1CN(C(=O)CC2CCCCC2)C[C@H]1c1ccncc1 | -6%
O=C1c2c(nc(CNCc3cccnc3)n2Cc2ccccc2)NCCN1CC1CCOCC1 | 5%

Next part
SMILES | NPR1 antag
N#Cc1cccnc1N1CCN(Cc2ccc(F)c(F)c2)C(CCO)C1 (stereo not drawn) | 7%
CCc1c(C)nn(CCNc2ncnc3c2c(C)nn3C)c1C | 5%
CNC(=O)[C@@H]1C[C@H](Oc2ccccc2)CN1C(=O)c1cc(-c2ccc(C)cc2)n[nH]1 | -2%
Cc1nc(-c2ccc(CNC(=O)CN3CCN(c4ncccn4)CC3)cc2)no1 | 1%
COc1ccc(C2Cn3cnc(C(=O)N4CCC(C(=O)Nc5cc(C)cc(C)c5)CC4)c3CO2)cc1 (stereo not drawn) | -3%
COc1ccccc1C(=O)NC1CCN(c2cc(-c3ccc(F)cc3)[nH]n2)C1 (stereo not drawn) | 0%
Cc1cc(C(=O)NCC2(COc3cccnc3)C[C@@H](O)[C@@H](O)C2)no1 (stereo partly drawn) | 1%[70.6 µM]
O=C(Nc1ccccc1)N1CCC(N(C(=O)C2CC2)C2CCOCC2)CC1 | -5%
COc1ccc(CN2CC3(CCN(C(=O)Nc4cccc(C(F)(F)F)c4)CC3)C2=O)cc1 | 16µM*
Cc1cc(C(=O)N2CCCCCNC(=O)[C@@H]3CCC[C@@H]32)n(C)n1 | 6%
O=C(CCC(F)(F)F)N1CCC2(CCCN(CC3CCCCC3)C2=O)C1 (stereo not drawn) | 5%
O=C(CCc1ccsc1)N1CCC2(CC1)OCCCC2O (stereo not drawn) | 0%
C[C@@H]1C(=O)O[C@H]2[C@H]1CC[C@@]1(C)Cc3sc(NS(=O)(=O)Cc4ccccc4)nc3[C@@H](C)[C@H]21 | -28%
O=C(COc1ccc(F)cc1)NCC(=O)N1CCN(c2ccccn2)CC1 | 0%
CN1CCCC2(CC1)CCN(C(=O)CC13CC4CC(CC(O)(C4)C1)C3)CC2 | 7%
CC1Oc2ccc(NC(=O)c3ccc(Cl)cc3)cc2CN(Cc2cc(F)cc(F)c2)C1=O (stereo not drawn) | -23%
CC(=O)Nc1ccc(NC(=O)CN2C(=O)NC3(CCOCC3)C2=O)cc1 | 0%
CN(Cc1ccnn1C)C1CCc2ccccc21 (stereo not drawn) | 27%[70.6 µM]
CN1CCN(Cc2ccc(Nc3cnc4ccc(-c5ccccc5)nn34)cc2)CC1 | 32µM*
COc1ccc(F)cc1S(=O)(=O)N1CCC(n2cnnc2C)CC1 | -3%
COc1ccc(CC(=O)NC2CCCN(c3cc(-c4ccc(OC)cc4)[nH]n3)C2)cc1 (stereo not drawn) | 0%
O=C(c1cc(F)ccc1F)N1CCC2(CC1)N(c1ccccc1)C(=O)CS2(=O)=O | -4%
O=C(CN1C(=O)CNC1=O)NCCc1noc(C2CCCC2)n1 | 2%
O=C(c1ccc2ccccc2c1)N1C[C@@H]2C[C@H](C1)c1ccc(NS(=O)(=O)c3cccc(F)c3)c(=O)n1C2 | -1%
COc1ccc2nc([C@H]3CCN(Cc4cccc(OC(F)(F)F)c4)C3)[nH]c2c1 | u
CCN1c2cc(C(=O)Nc3cccc(Br)c3)ccc2C(=O)N2CCCCC21 (stereo not drawn) | -7%
COc1cccc(CN2C(=O)CCCCC2C(=O)NCCc2ccccc2)c1 (stereo not drawn) | 3%
Cc1ccc(CN2CCOCCNC(=O)[C@H]3CCCC[C@H]32)s1 | 1%
CCNC(=O)CCc1c(CC)nn(-c2ccc(OC)cc2)c1Oc1cccc(F)c1 | -10%
Cc1cc(C(=O)N2[C@@H]3CC[C@H]2CC(NC(=O)c2ccc(F)cc2)C3)n[nH]1 (stereo partly drawn) | 1%
CCOc1ccc(C(=O)N2CCCC(n3cc(-c4nc(C(C)C)no4)nn3)C2)cc1 (stereo not drawn) | -17%
Cn1cc(-c2cn[nH]c2)c2nc(COc3ccccc3)cn2c1=O | -26%[70.6 µM]
CN(C)C[C@@H]1CN(C2CCOCC2)C[C@H]1NC(=O)c1ccco1 | 0%
CCOCc1nc(C2CCCN(C(=O)c3ccccc3F)C2)no1 (stereo not drawn) | -7%
COc1ccccc1C(=O)NCCn1ccn2nc(-c3ccc(C)c(C)c3)cc2c1=O | -4%
CC(=O)N1CCC(C(=O)NC[C@@H]2C=C(C)[C@H](CC(=O)N(C)Cc3ccccc3)C[C@H]2C(C)C)CC1 | 2%
O=C(Nc1ccc(-c2nnc3n2CCCC3)cc1)Nc1ccccc1F | -2%
Cc1ncoc1C(=O)N1CCC(C2CCN(Cc3cccc(F)c3F)CC2)C1 (stereo not drawn) | 2%
COc1ccc2cc(C(=O)N3CCN4CCS(=O)(=O)N(C5CC5)C(=O)C4C3)[nH]c2c1 (stereo not drawn) | 2%
NCC1Cn2cccc2CN1Cc1ccccc1 (stereo not drawn) | 3%
CCN(C)C(=O)CC1=CSC2=NC(C)=C(C(=O)OC(C)(C)C)C(c3ccc(Cl)cc3)N12 (stereo not drawn) | -24%
CC(C)c1noc(C2CCCN(C(=O)C3CCCCC3)CCC(=O)NCC2)n1 (stereo not drawn) | 0%
Cc1nc(C2CC(O)C2)cc(N(C)Cc2ccccc2-n2cccn2)n1 (stereo not drawn) | -7%
O=C(NC1CCN(c2cc(-c3ccc(F)cc3)[nH]n2)CC1)c1ccccc1Cl | -24%
CC(=O)N1CCN(C(=O)c2nc(N)nc3c2CCCC3)CC(O)C1 (stereo not drawn) | -2%
O=C1CCN(C(=O)c2ccccc2)CCCC(C(=O)Nc2ccccc2CCc2ccncc2)CCN1 (stereo not drawn) | -1%
COc1cccc(CN2CCCC(NC(=O)NCc3cccs3)C2)c1 (stereo not drawn) | 0%
CC(=O)N1CCN(C[C@@H]2C=C(C)[C@H](Cc3nnc(-c4cncn4C)o3)C[C@H]2C(C)C)CC1 | 1%
Cc1cn2nc(C(=O)N3CCSCC3)cc2c(N(C)Cc2ccccc2)n1 | -27%
CCCCCNc1ncnc2c1CN(c1ccccc1F)C(=O)CN2C | -1%

Next entries follow:
SMILES | NPR1 antag
O=C(Nc1ccc(Cl)cc1)N1CCC(Oc2ncccc2C(=O)N2CCCCC2)C1 (stereo not drawn) | -1%
COc1ccc(C(=O)NCc2nnc3cc(-c4nc(C)no4)ccn23)cc1 | 3%
O=C(C1CC1)N1CCn2c(nnc2-c2ccccc2)C1 | 0%[70.6 µM]
CC(C)C(=O)N1CCC2(CCCCO2)CC1 | -8%
